AmpC inh no det = AmpC beta-lactamase inhibition, detergent-free assay; Potency, µM (series often up to 28.7 µM), inactives show top-dose activity change, negative = inhibition; 1.8% of 71,000 active; P00811; AmpC nitrocefin hydrolysis, absorbance 480 nm, no detergent; potencies from a single point are estimates; active = falling curve, for most hits resting on a single point; inconclusive = weak or doubtful change; inactive = flat or rising curve; further: % of control where 0% means no effect; about half of the hits show no inhibition at the top dose; a quarter of the inactives give rising signals
Target sequence (P00811 whole entry, looked up): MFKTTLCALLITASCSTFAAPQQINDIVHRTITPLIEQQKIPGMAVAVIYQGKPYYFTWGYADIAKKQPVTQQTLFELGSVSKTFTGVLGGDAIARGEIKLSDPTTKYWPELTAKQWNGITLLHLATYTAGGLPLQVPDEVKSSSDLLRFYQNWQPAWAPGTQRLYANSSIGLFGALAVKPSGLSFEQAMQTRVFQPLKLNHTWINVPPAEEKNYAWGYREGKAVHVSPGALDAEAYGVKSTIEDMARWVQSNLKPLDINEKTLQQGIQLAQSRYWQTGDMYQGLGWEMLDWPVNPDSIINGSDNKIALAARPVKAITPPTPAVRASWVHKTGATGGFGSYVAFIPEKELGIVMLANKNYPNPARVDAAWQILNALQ
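AmpC, 20 mM phosphate pH 7.0; 15 min cpd preinc, RT; start with nitrocefin (800 uM stock); A480 kinetic read, 20 s intervals, 4 min. No-enzyme wells = negative control.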
Active calls of the source: *; ? = inconclusive; [ ] = dose if it differs, or a comment. Potency means the concentration at half of the fitted maximal effect. An excerpt (hit frequency here may not be typical).

SMILES	AmpC inh no det
CCn1c(SCC(=O)Nc2oc(-c3ccccc3)c(-c3ccccc3)c2C#N)nnc1-c1ccco1	?
NC(=O)CSc1nnc(-c2ccncc2)n1-c1ccc(Cl)cc1	3%
CCNc1ncc2nc(CCc3ccccc3)c(=O)n(-c3ccccc3)c2n1	14%
O=S(=O)(c1ccc2c(c1)oc1ccccc12)N1CCOCC1	17%
COc1cc(OC)c(NC(=O)CCNC(=O)Cn2cnc3ccccc3c2=O)cc1Cl	9%
CCn1c(SCC(=O)NCCc2ccc(F)cc2)nnc1-c1cccs1	24%
COc1ccc(N2CCN(Cc3nc(N)nc(N4CCCc5ccccc54)n3)CC2)cc1	134%
CC1CCCCC1NC(=O)COC(=O)c1ccc(S(=O)(=O)N2CCOCC2)cc1 (stereo not drawn)	11%
C=CCn1c(SCC(=O)Nc2cc(C)nn2-c2ccccc2)nnc1C1CCCCC1	43%
CC(/C=C/c1ccccc1)=N/O	-5%
COCCn1c(=O)c(-c2cc(F)cc(F)c2)nc2cnc(N3CCN(C)CC3)nc21	81%
COc1ccc(N2CCN(C(=O)CSc3nnc4ncccn34)CC2)cc1	14%
Cc1ccc2[nH]c(=O)c(CN(CCN3CCOCC3)C(=O)Nc3ccc(F)cc3)cc2c1	108%
Cc1ccc(Cn2ccc(NC(=O)c3cc(-c4ccccc4)on3)n2)cc1	?
COc1cccc(C2c3c(oc4ccccc4c3=O)C(=O)N2c2ccccn2)c1 (stereo not drawn)	2%
O=c1c2cnn(-c3ccccc3)c2ncn1Cc1ccccc1F	7%
COc1ccc(S(=O)(=O)NC(CC(=O)NC2CCCC2)c2ccco2)cc1 (stereo not drawn)	0%
CC(C)Oc1snc(Cl)c1C(N)=O	-2%
NC(=O)CSc1nnc(Cn2c(=O)sc3ccccc32)n1-c1cccc(Cl)c1	57%
C=CCn1c(Cc2c[nH]c3ccccc23)n[nH]c1=S	-5%
COc1ccc(-c2nc3cnc(N4CCN(C)CC4)nc3n(CCc3ccccc3)c2=O)cc1	75%
CCOC(=O)CSc1nc2c(c(=O)n(C)c(=O)n2C)n1Cc1ccccc1F	79%
COCCNC(=O)C(c1ccco1)N(Cc1ccc(OC)cc1)C(=O)Cn1nnc2ccccc21 (stereo not drawn)	58%
Cn1cnnc1SCc1ccccc1Br	1%
CCOc1ccc(NC(=O)N2CCN(CC)CC2)cc1	1%
c1ccc2ccccc2c1	-5%
CS(=O)(=O)N(CC(=O)O)Cc1ccccc1	4%[5.75 µM]
CC(=O)c1cc2c(cc1NC(=O)C1CC=CCC1C(=O)O)OCO2 (stereo not drawn)	-11%
Cn1c(SCc2nc3ccccc3[nH]2)nnc1-c1cnccn1	-8%
Clc1cccc(Cl)c1-c1nnc2ccc(N3CCOCC3)nn12	5%

Seven structures out of the list, arranged by length of the SMILES, smallest number first:
SMILES	AmpC inh no det
c1ccc2ccccc2c1	-5%
Cn1cnnc1SCc1ccccc1Br	1%
Cn1c(SCc2nc3ccccc3[nH]2)nnc1-c1cnccn1	-8%
Clc1cccc(Cl)c1-c1nnc2ccc(N3CCOCC3)nn12	5%
CC(=O)c1cc2c(cc1NC(=O)C1CC=CCC1C(=O)O)OCO2 (stereo not drawn)	-11%
CCOC(=O)CSc1nc2c(c(=O)n(C)c(=O)n2C)n1Cc1ccccc1F	79%
NC(=O)CSc1nnc(Cn2c(=O)sc3ccccc32)n1-c1cccc(Cl)c1	57%

Further records:
SMILES	AmpC inh no det
Cc1cc(C)n2nc(NCc3ccccc3)nc2n1	19%
CC(C)N(C(=O)Cn1c(SCC(=O)N2CCN(c3ccccc3)CC2)nc2ccccc21)C(C)C	3%
CN(Cc1ccccc1)Cc1nc2c([nH]1)c(=O)[nH]c(=O)n2C	-18%
COc1cc2c(cc1OC)-c1cc(NC3CC3)nc(=O)n1CC2	-9%
N#C/C(=C(/O)COC(=O)CCc1ccc(S(=O)(=O)N2CCOCC2)cc1)c1nc2ccccc2[nH]1	-10%
CC(=O)N(c1cccc(C)c1)C1SC(=O)N(c2ccccc2)C1=O (stereo not drawn)	5%
CN(Cc1nc(-c2ccccn2)no1)S(=O)(=O)c1ccc(Cl)cc1	28%
Nn1c(SCc2ccccc2)nnc1-c1ccco1	31%
COc1ccccc1[N+](=O)[O-]	-4%
CNc1ncncc1-c1ccccc1C(F)(F)F	14%
COC(=O)[C@@H]1C[C@H]1[C@@H](NS(=O)(=O)c1ccc(-c2ccccc2)cc1)c1ccccc1	-12%
CCOC(=O)c1c(-c2ccc(C)o2)csc1NC(=O)CSc1nnnn1-c1ccccc1	13µM*
CCOC(=O)N1CCN(C(=O)CN(c2cccc(C)c2)S(=O)(=O)c2ccc(C)cc2)CC1	100%
CCOC(=O)Cc1csc(NC(=O)c2cccc(N3C(=O)CCC3=O)c2)n1	7%
CC(C)NC(=O)N1CCC2(CC1)CCN(C(=O)Oc1ccccc1)CC2	54%
O=C(OC[C@@H](O)CO)c1ccccc1Nc1ccnc2cc(Cl)ccc12	12%[12.8 µM]
O=C(O)Cc1ccc(NC(=O)c2cccs2)cc1	-16%
N#CCCn1c(=O)c(-c2cccc(C#N)c2)nc2cnc(N3CCOCC3)nc21	12%
CC(O)C(O)C(O)C(O)C1NCCS1 (stereo not drawn)	-4%
Cc1cccn2cc(-c3ccc(F)cc3)nc12	13%
COc1ccc(C)c(S(=O)(=O)Nc2ccc(OCC(=O)O)cc2)c1	13%
CCOC(=O)N1CCN(CC(O)COC2CC(C)CC(C)(C)C2)CC1 (stereo not drawn)	91%
O=C(CSc1ncn(-c2ccccc2)n1)Nc1ccc(Br)cn1	-2%
CCOc1ccc(CCN2C(=O)CCC2(C)C(=O)NC(C)CC)cc1OCC (stereo not drawn)	53%
CCn1c(SCC(=O)Nc2nc(C)c(C(=O)OC)s2)nnc1C(C)C	26%
CCCCN(C(=O)NC(=O)Nc1cc(C)ccc1C)S(C)(=O)=O	5%
O=C(CSc1nnc(Cn2c(=O)sc3ccccc32)n1-c1ccccc1)NCc1ccco1	32%
C=CCn1c(-c2cccs2)nc2ccccc21	4%
COc1ccc(-n2c(Cc3cccn3C)nnc2SCC(=O)Nc2cc(Cl)ccc2OC)cc1	116%
C[C@@]1([C@@H](NP(=O)(c2ccccc2)c2ccccc2)c2ccccc2)C[C@H]1CCO	112%
COc1ccccc1C(=O)NCCNC(=O)c1ccco1	5%
Cn1c(=O)c(C(=O)CN2CCOCC2)c(N)n(Cc2ccccc2)c1=O	11%
CCn1c(SCC(=O)c2[nH]c(C)c(C(C)=O)c2C)nnc1-c1ccncc1	1%
O=C(c1ccc(Br)o1)N(Cc1ccccc1)c1ccccn1	5%
O=C(O)c1cccc(COc2ccccc2Cl)c1	-3%
CC(C)=C1C(=O)C(c2ccccc2)=C2CN3C(=O)N(CCc4ccccc4)C(=O)[C@]3(Cc3ccc(C(F)(F)F)cc3)[C@H]21	13%
CCOC(=O)c1[nH]c2c(c1C)C(=O)CC(c1ccco1)C2 (stereo not drawn)	8%
CC(C(=O)OCC(=O)Nc1ccc2c(c1)OCO2)N1C(=O)c2ccccc2C1=O (stereo not drawn)	2%
CCOC(=O)c1oc2ccccc2c1NC(=O)c1cccc(OC)c1	15%
c1ccc(CCc2nn3c(-c4ccncc4)nnc3s2)cc1	7%
CCN1CCN(C(=O)c2ccc3c(=O)n(Cc4ccccc4OC)c(=S)[nH]c3c2)CC1	132%
CCOC(=O)c1c(NC(C)=O)sc2c(O)c(CN3CCN(CC)CC3)ccc12	66%
Fc1ccc(-c2ccc(-c3nn4c(-c5ccco5)nnc4s3)o2)cc1	75%
COc1ccc(C(C)=O)cc1CSc1nc2ccccc2o1	34%
Cc1ccc(NC(=O)CCNS(=O)(=O)c2cccc3nonc23)cc1	-17%

Shown bar-delimited: part of the list above.
compound | AmpC inh no det
CC(C(=O)OCC(=O)Nc1ccc2c(c1)OCO2)N1C(=O)c2ccccc2C1=O (stereo not drawn) | 2%
COc1ccccc1C(=O)NCCNC(=O)c1ccco1 | 5%
c1ccc(CCc2nn3c(-c4ccncc4)nnc3s2)cc1 | 7%
CCn1c(SCC(=O)c2[nH]c(C)c(C(C)=O)c2C)nnc1-c1ccncc1 | 1%
O=C(c1ccc(Br)o1)N(Cc1ccccc1)c1ccccn1 | 5%
CCOC(=O)c1[nH]c2c(c1C)C(=O)CC(c1ccco1)C2 (stereo not drawn) | 8%

Looked up by structure from the entries so far:
SMILES	AmpC inh no det
CCOc1ccc(CCN2C(=O)CCC2(C)C(=O)NC(C)CC)cc1OCC (stereo not drawn)	53%
CC(C)Oc1snc(Cl)c1C(N)=O	-2%

Going on with the list.
SMILES	AmpC inh no det
CCCn1nnnc1NC(=O)CSc1ccc(Cl)cc1	-6%
COC(=O)CCCc1nc2ccccc2s1	-18%
C[C@@H]1Nc2ccc(Cl)cc2S(=O)(=O)N1	-2%
COc1ccc(OC)c(C(=O)c2coc3ccc(O)c(CN4CCOCC4)c23)c1	72%
O=S(=O)(NCc1ccccc1)c1ccc2c(c1)OCCO2	-4%
CCCCCn1c(CN2CCCCC2CC)nc2c1c(=O)n(C)c(=O)n2C (stereo not drawn)	18%
OC(COc1cccc(OCC(O)CN2CCCC2)c1)CN1CCCC1 (stereo not drawn)	32%
COCCn1nnnc1C(c1cc2cc(C)cc(C)c2[nH]c1=O)N1CCN(c2ccccc2F)CC1 (stereo not drawn)	148%
Cn1c(=O)c2c(nc(NCc3ccco3)n2CC(O)COc2ccccc2)n(C)c1=O (stereo not drawn)	41%
CCC(=O)NCCC(c1ccco1)c1ccccc1OC (stereo not drawn)	47%
O=C(O)CCCCn1cnc2c(=S)nc[nH]c21	-11%[5.75 µM]
O=C1NCCCc2c1oc1ccc(O)cc21	7%
CCC(=NC1CC1)c1c(O)n(C2CCCCC2)c(=O)[nH]c1=O	19%
C=Cn1ccnc1P(=S)(c1ccc(N(C)C)cc1)c1nccn1C=C	145%
CCOc1cc(C(=O)O)cc(Cl)c1OCC#N	-14%
Cn1c(NC(=O)c2ccco2)cc(=O)n(C)c1=O	-8%
COc1nc(NC(C)(C)C)nc(Oc2ccc(=O)n(-c3ccccc3)n2)n1	32%
COc1ccc(-c2csc(/C(C#N)=C(\O)CSc3nccn3C)n2)cc1OC	-9%
COc1cc(C(C(=O)NC(C)(C)C)N(Cc2ccccc2)C(=O)c2cnccn2)cc(OC)c1OC (stereo not drawn)	58%
CCOC(=O)c1nnn(-c2nonc2N)c1CN(CC)CC	20%
CC(O)CNc1ncnc2nc[nH]c12 (stereo not drawn)	-8%
C=C(C)CN(CC#N)CC(=C)C	15%[5.75 µM]
CCOc1ccc(C(=O)NCc2cccnc2)cc1	7%
Cc1ccc(Cn2c(C)nc3c(c2=O)c2nc4ccccc4nc2n3Cc2ccco2)cc1	16%
CCCn1c(N)c(C(=O)CN2CCN(S(=O)(=O)c3cccs3)CC2)c(=O)[nH]c1=O	2%
N#CC(Cl)(Cl)Cl	-5%
COc1ccc(/C(O)=C2/C(=O)C(=O)N(CCN3CCOCC3)C2c2ccc(C)cc2)cc1 (stereo not drawn)	12%
CCOc1cc(C)nc(NCCc2ccc(OC)c(OC)c2)n1	49%
CC(C)=CCC12CN3CCN(CC(C3)C1=O)C2	-1%
CN1[C@H](CC(=O)c2ccccc2)CCC[C@H]1C[C@@H](O)c1ccccc1	-16%

Taken from above.
CCOC(=O)c1nnn(-c2nonc2N)c1CN(CC)CC in AmpC inh no det has 20%
COc1cc(C(C(=O)NC(C)(C)C)N(Cc2ccccc2)C(=O)c2cnccn2)cc(OC)c1OC (stereo not drawn) in AmpC inh no det has 58%
CCCn1c(N)c(C(=O)CN2CCN(S(=O)(=O)c3cccs3)CC2)c(=O)[nH]c1=O in AmpC inh no det has 2%
COc1ccc(/C(O)=C2/C(=O)C(=O)N(CCN3CCOCC3)C2c2ccc(C)cc2)cc1 (stereo not drawn) in AmpC inh no det has 12%
CC(O)CNc1ncnc2nc[nH]c12 (stereo not drawn) in AmpC inh no det has -8%
CCOc1ccc(C(=O)NCc2cccnc2)cc1 in AmpC inh no det has 7%

Continuation:
SMILES	AmpC inh no det
O=C(Nc1cccnc1)c1cnn2c(C(F)F)cc(C3CC3)nc12	27%
COc1ccc(CC(=O)n2nc(-c3cccnc3)nc2N)cc1	34%
O=C(c1cccc(Cl)c1)N1CCN(C(=O)c2ccco2)CC1	2%
Cc1ccccc1-c1nc(CN2CCCC(C(=O)NCCCN3CCOCC3)C2)c(C)o1 (stereo not drawn)	55%
CN(C)CC(C)(C)CNC(=O)C1CCN(Cc2ccccc2O)CC1	-11%
C=CC(=O)OCCCC	9%
O=C1NC(=O)C(CC(=O)N(Cc2ccco2)C2(C(=O)NC3CCCCC3)CCCCC2)N1 (stereo not drawn)	20%
Cc1cc2ncn(C(=O)c3c(-c4ccccc4Cl)noc3C)c2cc1C	94%
CCCCC(CC)COC(=O)C(C#N)=C(c1ccccc1)c1ccccc1 (stereo not drawn)	?
CCN1CCN(P2(=O)C=C(c3ccccc3)OC(c3ccccc3)=C2)CC1	91%
CCOc1ccccc1C1CC(=O)Nc2cc3c(cc21)OCO3 (stereo not drawn)	2%
O=C(CN(Cc1ccccc1Cl)C(=O)c1ccc(CN2CCOCC2)o1)NCc1ccccc1	118%
N#CC1=C(N)NC(SCC(=O)Nc2ccccc2)=C(C#N)C12CCCC2	-20%
COc1ccc2c(C(=O)CN(C)C3CCCCC3)c[nH]c2c1	-14%
NC(=O)C1(N2CCCCC2)CCN(C(=O)CCCn2c(=O)[nH]c3ccsc3c2=O)CC1	11%
COc1ccc2cnn(CCOc3ccccc3)c(=O)c2c1OC	17%
COc1ccc(CC(=O)Nc2ccc(-c3noc(-c4cc(OC)c(OC)c(OC)c4)n3)cc2)cc1	30%
COCCn1nnnc1C(C(C)C)N1CCN(C(=O)c2ccco2)CC1 (stereo not drawn)	10%
Cc1ccnc2nc(C(=O)OCCOc3ccccc3)nn12	-13%
C[C@]12C=CC(=O)C=C1CC[C@@H]1[C@H]3C[C@@H](O)[C@](O)(C(=O)CO)[C@]3(C)C[C@H](O)[C@]12F	0%
